High-throughput results (PubChem)
HCMV UL50-53 inh = disrupts HCMV UL50-UL53 complex binding | inhibition, % (concentration not given with the values) | HTRF UL50-UL53 interaction, normalized percent inhibition | 190,000 tested, 0.15% active;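 active means both replicates at 50% or more, plus weaker picks with an unusually low signal ratio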;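 further: stock transfer was 100 nL into about 20 µL; 0% = negative control wells and 100% = wells with untagged competitor protein; inactives centre near -12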
Numbers without * were called inactive; & = joins results of further samples.

SMILES	HCMV UL50-53 inh
O=S(=O)(c1ccc(F)cc1)N1CCN=C1SCc1ccc(F)cc1	1&1
COC(=O)c1ccc2c(c1)C(=O)/C(=C\c1ccccc1O)O2	-8
Cc1c(O)cccc1C(=O)NC(CSc1ccccc1)C(O)CN1C[C@H]2CCCC[C@H]2CC1C(=O)NC(C)(C)C (some centres undefined)	-24
CC(C)CN1C[C@@H](CN2CCOCC2)C[C@@H](C(=O)N2CCCC2)C1	-9
CCOC(=O)c1ccc(NC(=O)CSc2ncnc3ccccc23)cc1	5
CCOC(=O)N1CCN(C(=O)CSc2ccc(C)cc2)CC1	9&5
COc1cc(/C=N/S(=O)(=O)c2ccccc2)cc(OC)c1O	-8&-9
O=C(O)COc1ccccc1/C=C1/SC(=S)N(Cc2ccco2)C1=O	-41
c1ccc(CNc2ncnc3c2cnn3-c2ccccc2)cc1	-10
CC(C)Sc1nc2ccccc2n1CC(=O)O	-15
Cc1cc(NC(=O)CSc2cn(C)c3ccccc23)no1	-15
CCCC(NC(=O)C1[C@H]2CCC[C@H]2CN1C(=O)C(NC(=O)C(NC(=O)c1cnccn1)C1CCCCC1)C(C)(C)C)C(=O)C(=O)NC1CC1 (some centres undefined)	0
O=C1c2cccc(OCc3ccc(Cl)cc3)c2CCN1Cc1cccnc1	5
Cc1c(Br)c(=O)oc2c(Br)c(O)ccc12	-58
CN1CCC(c2c(O)cc(O)c3c(=O)cc(-c4ccccc4Cl)oc23)C1CO (centres undefined)	-12
CN(C)Cc1c(O)ccc2c(=O)c(-c3ccc4c(c3)OCCO4)coc12	-19
CC(C)c1cnn2c(NCc3ccccc3)cc(NCCCCCCN)nc12	14
c1ccc(-c2ccc(-c3ccccn3)nc2)nc1	-6
O=C(COc1ccccc1)Nc1c(-c2cccs2)nc2ccccn12	-21
CSc1ncnc2c1oc1ccccc12	-10

Three structures out of the list, ordered by molecular weight, smallest number first.
SMILES	HCMV UL50-53 inh
CSc1ncnc2c1oc1ccccc12	-10
c1ccc(CNc2ncnc3c2cnn3-c2ccccc2)cc1	-10
COc1cc(/C=N/S(=O)(=O)c2ccccc2)cc(OC)c1O	-8&-9

Following part.
SMILES	HCMV UL50-53 inh
Cc1ccc2c(C(=O)N3CCCC3c3nc(C)no3)cc(-c3cnn(C)c3)nc2c1 (centres undefined)	-5
Cc1c(Cc2ccc3ccccc3n2)c2cc(F)ccc2n1CC(=O)O	-26
C=C1C(C)(C)[C@H]2CC[C@]1(C(=O)N1CCC(n3cc(CC(C)C)nn3)CC1)C2	-5
C[C@]12CC[C@@H]3c4cc(O)c(O)cc4CC[C@H]3[C@@H]1CC[C@@H]2O	2&2
CCOC(=O)c1ncc2[nH]c3cccc(OC(C)C)c3c2c1C	12
CCOC(=O)CSc1nc2c([nH]c3ccccc32)c(=O)n1-c1ccc(F)cc1	-8
O=C(Nc1nc(-c2ccccc2)cs1)c1cc(=O)c2ccccc2o1	0
CCCCCCCCCCCCCCCCSC[C@H](COP(=O)([O-])OCC[N+](C)(C)C)NC(=O)CCCCCCCCCCCCCCC	-19&-19
CC(C)n1ncc(NC(=O)Cn2ccc(-c3ccc(C(F)(F)F)cc3)n2)n1	4&4
COCCN1C(=O)/C(=C/c2cn(-c3ccccc3)nc2-c2ccccc2)SC1=S	-3
Cc1nc(SCCO)c2c3c(sc2n1)CCCC3	0
N#Cc1cnn2cc(CCCO)c(C(F)(F)F)nc12	-16
O=C(O)CN1C(=O)/C(=C/c2ccccc2)SC1=S	-113
COC(=O)c1c(NC(C)=O)c2cc(NCc3sccc3C)cnc2n1CC1CCCO1 (centres undefined)	-24
CN(CC(O)COCC1COc2ccccc2O1)C1CCCCC1 (centres undefined)	-11
Cc1cc(NC(=O)c2ccc(N(C)C)cc2)no1	1
O=C(O)c1cccc(N2C(=O)/C(=C\c3ccc4c(c3)OCO4)SC2=S)c1	-20
COc1ccc(Oc2ccc3[nH]c4c(c3c2)CCCC4=O)cc1	-11
O=C(O)CN1C(=O)S/C(=C\c2ccc(Br)cc2)C1=O	-58
CC(=O)NC1(C2CCCCC2=O)CCCCC1 (centres undefined)	-9
O=C1O[C@H](C(O)CO)C(O)C1O (some centres undefined)	-4
COc1cc(S(=O)(=O)Nc2cccnc2)ccc1Cl	-6
COC(=O)/C=C/C(=O)OC	-67
OCCN1CCN(CC/C=C2/c3ccccc3Sc3ccc(Cl)cc32)CC1	-20
O=C(CCCc1c[nH]c2ccccc12)Nc1ccc(Cl)cc1F	-7
CC(=O)c1ccc(N2CCOCC2)cc1O	-19
CC(=O)NC(CCCN=C(N)N)C(=O)O (centres undefined)	-5
O=C(O)c1c[nH]ccc1=O	-6
N#CC1=C(SCC(N)=O)NC(O)(C(F)(F)F)C(C(=O)c2cccs2)C1c1ccc(F)cc1 (centres undefined)	0
CSc1c(-c2ccccc2)nc2ccccc2c1C(=O)O	4
Cn1c(CNC(=O)C(C)(C)C)nc2ccccc21	6
COC(=O)c1ccc2nc(NC(=O)c3ccco3)sc2c1	-4
O=C(CSc1nnc2sc3ccccc3n12)c1cccs1	12&-4
CC(=O)NC1=NN(C(C)=O)C(C)(c2ccccc2)S1 (centres undefined)	13
CCc1nc(NC(=O)NC(c2ccccc2)c2ccccc2)nn1C	-5&-5
COC(=O)c1c(NC(=O)CCNCc2ccco2)sc2c1CCC2	-20
CCc1ccc(NC(=O)c2ccccc2C(=O)O)cc1	-10
Cc1c(C(N)=O)sc2nc(-c3ccccc3)cn12	-13
O=c1c(/C=N/O)coc2ccc(Cl)cc12	-10
COC(=O)c1c(NC(=O)CC2Sc3ccccc3NC2=O)sc(C)c1C (centres undefined)	8
O=C(NC1CC1)C1CCC(=O)N1C1CCCC1 (centres undefined)	-7
CC1(C)S[C@@H]2C(NC(=O)C(C(=O)O)c3ccccc3)C(=O)N2C1C(=O)O (some centres undefined)	-12
O=C1c2cccnc2C(=O)N1Cc1ccc(S(=O)(=O)NCCc2ccccc2)s1	7
c1ccc(-c2csc3ncnc(N4CCOCC4)c23)cc1	0
CN1CCCN(C(c2ccccc2)c2ccc(Cl)cc2)CC1 (centres undefined)	-22
CCCn1ncc(-c2ccnc(NCc3cc(CC)no3)n2)c1C	-3&-3
Cc1nn(C)cc1-c1ccnc(NCc2nc(Cc3ccccc3)no2)n1	-22&-22
CCN1C(=O)c2cccc3c(S(=O)(=O)NC4CCCC4)ccc1c23	7
COC(=O)C1=C(NC(=O)COc2ccccc2)CCS1	-14
Cc1[nH]c2ccccc2c1C(c1ccncc1)N1CCOCC1 (centres undefined)	8
Cc1ccc(C(=O)Nc2nc(-c3ccc(C#N)cc3)cs2)cc1	-8
Nc1cc(N2CCCCC2)nc(N)[n+]1OS(=O)(=O)[O-]	-15
CC(=O)Nc1nnc(C23CC4CC(CC(C4)C2)C3)s1	-17
CCOc1cc(N2CCOCC2)c(OCC)cc1NS(=O)(=O)CC	-2
CCOC(=O)c1nn(CCC(F)(F)F)c2c1CN(C(=O)c1ccco1)CC2	-5
COc1cc(NC(=O)c2nccn2C)cc(C(=O)Nc2cccc(C(F)(F)F)c2)c1	-17
O=c1cc(CO)oc(CN2CCc3ccccc3C2)c1O	-27
O=C(CS(=O)(=O)c1c[nH]c2ccccc12)N1CCCCC1	-6
CCc1ccccc1NC(=O)CC(NCC1CCCO1)C(=O)O (centres undefined)	-2
COc1cc2ncnc(Nc3ccc(NC(=O)c4ccccc4)cc3)c2cc1OC	-8
Carrying on.
SMILES	HCMV UL50-53 inh
O=C(CSc1ccccc1C(=O)O)Nc1cccc(C(F)(F)F)c1	-10
CCOC(=O)c1c(C)[nH]c(C(=O)CC(=O)OC)c1C	-4
NC(=O)c1c(NC(=O)CCOc2ccccc2)sc2c1CCCC2	-10
CCCCCCCCCCCCCCC(F)C(=O)O (centres undefined)	-12&-12&-15
Cc1ccc(-c2nc3ccccc3[nH]2)cc1	-13
Cc1ccc(C(=O)NCC(=O)NC2CCCCC2)cc1	-14
O=C(Nc1nc(-c2ccccc2)cs1)C1CCCO1 (centres undefined)	-20
Cc1cc2ncn(C(=O)c3ccccc3C(=O)O)c2cc1C	-10
CCSc1nnc(CNC(=O)c2ccccc2)n1-c1ccccc1	-22
CC1C(=O)C(C)C(c2ccccc2)NC1c1ccccc1 (centres undefined)	-2
Cc1ccc(NC(=O)CSc2nccn2-c2ccc(Cl)cc2)cc1	-6
O=C(CN1C(=O)/C(=C\c2cccs2)SC1=S)Nc1ccccc1	4&-4
COc1ccc(OC)c(S(=O)(=O)NCCc2ccccc2)c1	7
CC(C)C[C@@H](/C=C/S(C)(=O)=O)NC(=O)[C@H](CC(C)C)NC(=O)[C@H](CC(C)C)NC(=O)OCc1ccccc1	-2
CCCCCCCCCCCCCCCC(=O)NCCc1ccc(O)c(O)c1	-31&-31
Cc1ccc(C(=O)N2CCN(c3ccccc3F)CC2)cc1S(=O)(=O)N1CCCC1	-12
COc1cccc(OCC(=O)NCc2ccccc2)c1	-1
OC(c1ccccc1)c1nccc2ccccc12 (centres undefined)	-20
CSC1=C(C#N)C(c2ccc3c(c2)OCO3)C2=C(CCCC2=O)N1 (centres undefined)	-32
Cc1ccc(S(=O)(=O)N2CCN3C(=O)[C@H](Cc4ccc(Cl)cc4)NC(=O)[C@H]3C2)cc1	8
C=CCN(C)CCCCCCOc1ccc(C(=O)c2ccc(Br)cc2)c(F)c1	-8&-8
CCOC1O[C@H]([C@@H](COCc2ccccc2)OCc2ccccc2)[C@H](OCc2ccccc2)[C@H]1O (some centres undefined)	-42
CCOc1ccc(C(=O)/C(C)=N/O)cc1	-22
Cn1c(COc2cccc3cccnc23)nnc1SCC(=O)c1ccccc1	-10
O=C(O)C1(Oc2cccc(-c3cccc4ncccc34)c2)CCCC1	-27
Nc1nc(SCC(=O)NCc2ccccn2)nc2sc3c(c12)CCCC3	-17
O=C(NCCc1nc2ccc(F)cc2[nH]1)c1cnccn1	-1&-1
CC(C)C(CO)Nc1nc(Nc2ccc(C(=O)O)c(Cl)c2)c2ncn(C(C)C)c2n1 (centres undefined)	-5&-15&-12
COc1ccc(-c2nc3ccccn3c2NC(=O)C(C)C)cc1	-9
CC(C)Cn1c(CO)nc2ccccc21	-27
COc1ccccc1-c1noc(C(C)n2cccn2)n1 (centres undefined)	-1
CC(C)(C)C(=O)Nc1nnc(SCC(=O)Nc2cc(C(F)(F)F)ccc2Cl)s1	-22
O=C1/C(=C/c2cccs2)CCC/C1=C\c1cccs1	-59
Nc1[nH]ncc1-c1ccc(-n2cccc2)cc1	-7
O=C1/C(=C/c2cccs2)SC(=S)N1c1ccc(Cl)c(Cl)c1	4&-7
CC(=O)Nc1ccc(-n2c(C)ccc2C)c(C(=O)O)c1	5
C=C(C)Cn1c(CNC(=O)C(C)(C)C)nc2ccccc21	-10
Cc1c(NC(=O)N2CCOCC2)ccc2c1c1ccccc1n2C(C)C	-3
O=C(CSc1nc2ccccc2s1)OCC(=O)c1ccc(F)cc1	8
O=C(/C=C/c1ccccc1)Nc1nc2ccc(S(=O)(=O)N3CCCC3)cc2s1	0
COc1cc2c(cc1OC)C(C)N(c1ncnc3c1cnn3-c1cccc(C)c1)CC2 (centres undefined)	-10
O=C(OCC(=O)c1cccc2ccccc12)c1cccs1	-6
C=CCn1c(=NC(=O)/C=C/c2ccccc2)sc2cc(S(C)(=O)=O)ccc21	-14
C=C1O[C@@](CO)(n2cnc3c(N)ncnc32)[C@H](O)[C@@H]1O	-2
CCN1CCN(C(c2cccs2)C(C)NC(=O)Cc2ccc(OC)c(OC)c2)CC1 (centres undefined)	4
CC1CC(Nc2ncnc3nc[nH]c23)CC(C)(C)C1 (centres undefined)	-10
C[C@H](Cn1cnc2c(N)ncnc21)OCP(=O)(O)O	-55
O=C(O)CNc1ccccc1C(=O)O	0
C=CC(=O)Nc1cccc(N2C(=O)N(c3c(Cl)c(OC)cc(OC)c3Cl)Cc3cnc(NCCCCN(CC)CC)nc32)c1	-7
C=CCNc1nc(-c2ccc(Cl)cc2)cs1	-22
Nc1nc2ccc(S(=O)(=O)N3CCCCC3)cc2s1	-10
C=C1C[C@H](O)[C@H](C/C=C\CCCC(=O)O)[C@H]1/C=C/C(=O)CCCCC	-9&-9
COC(=O)c1ccccc1NC(=O)c1ccc(-c2ccccc2Cl)o1	-1

Arranged by molar mass (largest number first): part of the list above
SMILES	HCMV UL50-53 inh
C=CC(=O)Nc1cccc(N2C(=O)N(c3c(Cl)c(OC)cc(OC)c3Cl)Cc3cnc(NCCCCN(CC)CC)nc32)c1	-7
CC(C)(C)C(=O)Nc1nnc(SCC(=O)Nc2cc(C(F)(F)F)ccc2Cl)s1	-22
CCN1CCN(C(c2cccs2)C(C)NC(=O)Cc2ccc(OC)c(OC)c2)CC1 (centres undefined)	4
COc1cc2c(cc1OC)C(C)N(c1ncnc3c1cnn3-c1cccc(C)c1)CC2 (centres undefined)	-10
O=C(/C=C/c1ccccc1)Nc1nc2ccc(S(=O)(=O)N3CCCC3)cc2s1	0
O=C1/C(=C/c2cccs2)SC(=S)N1c1ccc(Cl)c(Cl)c1	4&-7
O=C(CSc1nc2ccccc2s1)OCC(=O)c1ccc(F)cc1	8
COC(=O)c1ccccc1NC(=O)c1ccc(-c2ccccc2Cl)o1	-1
Cc1c(NC(=O)N2CCOCC2)ccc2c1c1ccccc1n2C(C)C	-3
Nc1nc2ccc(S(=O)(=O)N3CCCCC3)cc2s1	-10
O=C(OCC(=O)c1cccc2ccccc12)c1cccs1	-6
C[C@H](Cn1cnc2c(N)ncnc21)OCP(=O)(O)O	-55
O=C1/C(=C/c2cccs2)CCC/C1=C\c1cccs1	-59
C=C(C)Cn1c(CNC(=O)C(C)(C)C)nc2ccccc21	-10
C=C1O[C@@](CO)(n2cnc3c(N)ncnc32)[C@H](O)[C@@H]1O	-2
CC(=O)Nc1ccc(-n2c(C)ccc2C)c(C(=O)O)c1	5
COc1ccccc1-c1noc(C(C)n2cccn2)n1 (centres undefined)	-1
CC1CC(Nc2ncnc3nc[nH]c23)CC(C)(C)C1 (centres undefined)	-10
Nc1[nH]ncc1-c1ccc(-n2cccc2)cc1	-7
CC(C)Cn1c(CO)nc2ccccc21	-27
O=C(O)CNc1ccccc1C(=O)O	0

These rows are one share of the data, so the mix of outcomes need not match the whole.
